Rango dissoc inh: qHTS Assay for Inhibitors of RanGTP induced Rango (Ran-regulated importin-beta cargo) - Importin beta complex dissociation | 340,000 tested, 0.071% active | Snurportin-1 (Homo sapiens) + GTP-binding nuclear protein Ran (Homo sapiens) + Importin … | Biochemical FRET Rango-importin beta, RanGTP-induced dissociation | Potency, µM (doses to about 46.1 µM), for the others: top-dose activity change, negative = inhibition; active means falling FRET ratio curve, often poorly fitted, with flat reads before Ran was added; inconclusive means other falling curves, or compound fluorescence or quenching; inactive means flat or rising ratio curve;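 also: potency is read from the fitted curve at half-maximal effect; % of control where 0% means no effect; nearly all actives have a fitted effect of over 45% in size; -100% = wells without RanGTP and RCC1; the record marks most hits as doubtful in a second field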
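Two FRET readings bracket the reaction: one 5 min after compound meets Rango–importin beta, another 45 min after RanGTP-RCC1 (0.6 uM Ran, 0.2 uM RCC1, 2 mM GTP) is added. Only the second defines inhibition.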
GLA inh pH 4.5: qHTS Assay for Inhibitors of Human alpha-Galactosidase at pH 4.5. activity change, negative = inhibition, % at 105 µM. purified enzyme, 4-MU-alpha-Gal fluorescence, pH 4.5. 230,000 tested, under 10 active; inconclusive = small, poorly fitted or top-dose-only inhibition, or a rising curve; inactive = flat fitted curve, though single readings scatter; no compound was filed as active;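 also: 0% = full activity with enzyme and -100% = basal without enzyme; dose as in the result columns while the protocol names 77 µM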
Rango-impB inh: qHTS Assay for Inhibitors of Rango (Ran-regulated importin-beta cargo) - Importin beta complex formation. Rango CFP/YFP FRET sensor + importin beta, 45 min. Potency, µM (series often up to 92.2 µM), inactives show top-dose inhibition of complex formation. 340,000 tested, 0.031% active. AID 540263, 2011; active = rising FRET ratio curve, often small or poorly fitted; inconclusive = mostly compound fluorescence or quenching in the first reads; inactive = flat curves in all reads;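 also: potency is read from the fitted curve at half-maximal effect; 0% = DMSO wells and 100% = buffer wells lacking importin beta; nearly all actives have a fitted effect of over 15% in size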
Target sequence (Q14974 whole entry, looked up): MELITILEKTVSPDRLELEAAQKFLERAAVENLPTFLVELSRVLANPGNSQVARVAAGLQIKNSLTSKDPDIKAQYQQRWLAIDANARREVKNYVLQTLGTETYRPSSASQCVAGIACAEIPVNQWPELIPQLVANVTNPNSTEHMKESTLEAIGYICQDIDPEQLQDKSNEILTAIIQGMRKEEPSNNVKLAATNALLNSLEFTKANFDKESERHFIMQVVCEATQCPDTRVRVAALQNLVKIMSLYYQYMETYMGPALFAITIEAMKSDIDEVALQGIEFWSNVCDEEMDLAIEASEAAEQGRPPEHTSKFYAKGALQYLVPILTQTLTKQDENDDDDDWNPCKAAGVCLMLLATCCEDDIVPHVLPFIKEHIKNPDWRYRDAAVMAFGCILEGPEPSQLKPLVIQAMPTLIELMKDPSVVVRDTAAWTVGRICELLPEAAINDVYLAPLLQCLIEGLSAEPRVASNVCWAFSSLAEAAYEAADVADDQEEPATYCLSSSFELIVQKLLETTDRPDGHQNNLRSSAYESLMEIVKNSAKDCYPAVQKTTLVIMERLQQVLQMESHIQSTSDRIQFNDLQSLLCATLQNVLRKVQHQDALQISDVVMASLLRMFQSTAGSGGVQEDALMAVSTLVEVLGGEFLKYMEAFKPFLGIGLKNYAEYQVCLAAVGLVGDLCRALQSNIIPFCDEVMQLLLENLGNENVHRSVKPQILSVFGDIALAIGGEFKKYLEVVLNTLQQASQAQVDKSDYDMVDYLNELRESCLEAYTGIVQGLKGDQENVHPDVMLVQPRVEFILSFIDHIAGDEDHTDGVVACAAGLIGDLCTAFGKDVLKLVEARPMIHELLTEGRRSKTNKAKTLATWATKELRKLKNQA
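Inhibition scored from the CFP 486 nm/YFP 530 nm FRET ratio 45 min after adding 0.125 microM importin beta to 50 nM Rango biosensor preincubated 5 min with compound (room temperature, PBS with DTT, Tween-20, BSA). No-importin wells as positive control.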
miR-21 FLuc: qHTS Assay for Modulators of miRNAs and/orActivators of miR-21; HeLa miR-21 FLuc reporter, luciferase, 48 h; Potency, µM (titrated, usually from 38.3 µM), inactives show at the top dose reporter change, positive = more light; 340,000 tested, under 10 active; AID 2288, 2010; active = well fitted rising curve with a large enough effect; inconclusive = small, poorly fitted or top-dose-only effect; inactive = no such curve, though single readings can be large or run the other way;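 also: % of control where 0% means no effect; miR-21 action dims this reporter so a rising signal means less miR-21 action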
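HeLa miR-21-FLuc reporter line, endogenous miR-21; 2000 cells/well in DMEM/10% FBS; compound titration up to ~40uM final, 48 h, 37 degree Celsius; luciferase detection reagent, 15 min lysis, CCD luminescence.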
* marks the source's active call; other numbers are inactive results; ? = inconclusive; · = not tested or not shown; & = joins results of further samples; [ ] = remark or other dose.

Sample of the layout, 21 compounds:
item	SMILES	Rango dissoc inh	GLA inh pH 4.5	Rango-impB inh	miR-21 FLuc
1	Cc1cccnc1NC(=O)CCNS(=O)(=O)c1ccc2c(c1)c(=O)n(C)c(=O)n2C	-18%	2	4.2%	0%
2	NNc1cccc(C=Cc2ccccc2)cc1=O	?	·	?	·
3	CCOc1ccc(NC(=O)CN(C)CC(=O)Nc2ccc(Br)cc2F)cc1OCC	1%	-1	-1.2%	3%
4	CC(=NCCc1ccccc1)C1=C(O)COC1=O	8%	2	-0.1%	-2%
5	O=C(NCCCN1CCOCC1)c1ccc2ccccc2c1	-15%	·	-3.2%	·
6	O=C(CSc1ccccn1)N1CCN(c2cccc(Cl)c2)CC1	8%	9	7.1%	7%
7	CCN(CC)P(=O)(Nc1cccc(C(F)(F)F)c1)c1ccc(N(C)C)cc1NC(=O)c1ccco1 (centres undefined)	-1%	-19	-0.9%	?
8	Clc1ccc2nc(CN3CCCCCC3)cn2c1	3%	4	8.5%	-3%
9	O=C(CCc1ccc(S(=O)(=O)NCc2ccccc2)cc1)NCC1CCCO1 (centres undefined)	3%	-3	?	-5%
10	O=C(NCCc1ccccc1)c1c[nH]c2ccc(F)cc2c1=O	6%	·	0.0%	·
11	C=CCNC(=O)N1C2=NC(C(=O)OC)=C(C(=O)OC)[C@@H]3N(Cc4ccccc4)c4ccccc4[C@]23C[C@H]1C(=O)OC	-8%	·	-1.5%	·
12	CC1CN(C(=O)c2ccc(-c3cccc(C(F)(F)F)c3)o2)CC(C)O1 (centres undefined)	3%	·	-0.2%	·
13	COc1ccc2nc(-c3ccccc3)cc(C(=O)N3CCC3)c2c1	32%	·	-2.4%	·
14	Cn1c(=O)n(C)c2cc(NS(=O)(=O)c3ccc(Cl)s3)ccc21	2%	-4[21.1 µM]	?	-1%
15	CN1CCN(CCCNC(=O)c2ccc3c(c2)N(Cc2ccccc2)CCS3)CC1	-12%	?	4.0%	-3%
16	O=C(NCCCc1ccccc1)c1cccc(NC(=O)C2CCC2)c1	0%	·	-1.8%	·
17	CCc1ccccc1NC(=O)CCCN1C(=O)C2CC=CCC2C1=O (centres undefined)	-3%	·	-0.4%	-5%
18	O=C(Cn1c(C(=O)NCCCN2CCOCC2)cc2sccc21)c1ccccc1	8%	6	-2.9%	-6%
19	CCOC(=O)C1(Cc2cccc(Cl)c2)CCCN(C(=O)c2ccnn2C)C1 (centres undefined)	0%	·	-1.9%	-28%
20	CCc1ccc(NC(=O)C2CCCN(S(=O)(=O)c3ccc4[nH]c(=O)ccc4c3)C2)cc1 (centres undefined)	8%	·	-0.5%	0%&3%
21	Fc1ccc(NC(=S)N2CCc3[nH]c4ccccc4c3C2)cc1	-1%	-10	?	7%

The whole of this part (from the top)
item	SMILES	Rango dissoc inh	GLA inh pH 4.5	Rango-impB inh	miR-21 FLuc
1	Cc1cccnc1NC(=O)CCNS(=O)(=O)c1ccc2c(c1)c(=O)n(C)c(=O)n2C	-18%	2	4.2%	0%
2	NNc1cccc(C=Cc2ccccc2)cc1=O	?	·	?	·
3	CCOc1ccc(NC(=O)CN(C)CC(=O)Nc2ccc(Br)cc2F)cc1OCC	1%	-1	-1.2%	3%
4	CC(=NCCc1ccccc1)C1=C(O)COC1=O	8%	2	-0.1%	-2%
5	O=C(NCCCN1CCOCC1)c1ccc2ccccc2c1	-15%	·	-3.2%	·
6	O=C(CSc1ccccn1)N1CCN(c2cccc(Cl)c2)CC1	8%	9	7.1%	7%
7	CCN(CC)P(=O)(Nc1cccc(C(F)(F)F)c1)c1ccc(N(C)C)cc1NC(=O)c1ccco1 (centres undefined)	-1%	-19	-0.9%	?
8	Clc1ccc2nc(CN3CCCCCC3)cn2c1	3%	4	8.5%	-3%
9	O=C(CCc1ccc(S(=O)(=O)NCc2ccccc2)cc1)NCC1CCCO1 (centres undefined)	3%	-3	?	-5%
10	O=C(NCCc1ccccc1)c1c[nH]c2ccc(F)cc2c1=O	6%	·	0.0%	·
11	C=CCNC(=O)N1C2=NC(C(=O)OC)=C(C(=O)OC)[C@@H]3N(Cc4ccccc4)c4ccccc4[C@]23C[C@H]1C(=O)OC	-8%	·	-1.5%	·
12	CC1CN(C(=O)c2ccc(-c3cccc(C(F)(F)F)c3)o2)CC(C)O1 (centres undefined)	3%	·	-0.2%	·
13	COc1ccc2nc(-c3ccccc3)cc(C(=O)N3CCC3)c2c1	32%	·	-2.4%	·
14	Cn1c(=O)n(C)c2cc(NS(=O)(=O)c3ccc(Cl)s3)ccc21	2%	-4[21.1 µM]	?	-1%
15	CN1CCN(CCCNC(=O)c2ccc3c(c2)N(Cc2ccccc2)CCS3)CC1	-12%	?	4.0%	-3%
16	O=C(NCCCc1ccccc1)c1cccc(NC(=O)C2CCC2)c1	0%	·	-1.8%	·
17	CCc1ccccc1NC(=O)CCCN1C(=O)C2CC=CCC2C1=O (centres undefined)	-3%	·	-0.4%	-5%
18	O=C(Cn1c(C(=O)NCCCN2CCOCC2)cc2sccc21)c1ccccc1	8%	6	-2.9%	-6%
19	CCOC(=O)C1(Cc2cccc(Cl)c2)CCCN(C(=O)c2ccnn2C)C1 (centres undefined)	0%	·	-1.9%	-28%
20	CCc1ccc(NC(=O)C2CCCN(S(=O)(=O)c3ccc4[nH]c(=O)ccc4c3)C2)cc1 (centres undefined)	8%	·	-0.5%	0%&3%
21	Fc1ccc(NC(=S)N2CCc3[nH]c4ccccc4c3C2)cc1	-1%	-10	?	7%
22	CCCn1c(=C(C#N)C#N)s/c(=C2\C=Cc3ccccc3N2CC)c1=O	1%	-2	0.8%	-3%
23	CCOc1cc(C(=S)N2CCCC2)ccc1OCC(=O)Nc1c(C)cc(C)cc1C	-9%	2	0.0%	-2%
24	Cn1ccnc1C(OC(=O)c1ccccc1)C(F)(F)F (centres undefined)	19%	·	0.1%	1%
25	COCCN1C(=O)c2oc3ccccc3c(=O)c2C1c1cccc(O)c1 (centres undefined)	-9%	-3	2.8%	-4%
26	Cc1nc2nc(SCC(=O)O)nn2c(C)c1Cc1c(F)cccc1Cl	-9%	-3	-3.0%	-2%&-4%
27	Cc1cc2c(cc1S(=O)(=O)Nc1c(C)cccc1C)n(C)c(=O)c(=O)n2C	-4%	·	-2.3%	0%
28	CC(C)n1nccc1NS(=O)(=O)c1ccccc1	-8%	·	-1.9%	·
29	CC(=O)N1C(=O)C(=C2C=C(C)OC(C)=C2)c2ccccc21	?	-3	?	-4%
30	CCCc1[nH]nc2c1C(/C(C)=C/c1ccccc1)C(C#N)=C(N)O2 (centres undefined)	-11%	-7	-0.2%	5%
31	CCN1CCC2(CC1)C(C#N)=C(N)Oc1c2sc2nc(C)cc(C)c12	?	11	?	-33%
32	Cc1cccc(NC(=O)NCCc2c[nH]c3ccccc23)c1	-6%	-4	-0.5%	-13%
33	CC(C)(C)NC(=O)C(OC(=O)c1ccco1)c1ccc(Cl)cc1 (centres undefined)	-3%	·	-0.2%	1%
34	CCOc1cc(CNCCO)c(Cl)cc1OCC(=O)NCCc1ccccc1	1%	2	3.6%	-3%
35	NC(=O)C1CCN(CC(=O)Nc2ccc3c(c2)OCCO3)CC1	15%	·	1.3%	·
36	COc1ccc(CCn2c(C(C)C)nc3c(c(=O)c4ccccc4n3C)c2=O)cc1	-1%	3	-1.0%	-5%
37	COc1c(S(=O)(=O)N2CCN(c3ccc(F)cc3)CC2)ccc(Cl)c1Cl	21%	-6	2.5%	-5%
38	CCCCn1c(SCC(N)=O)nc2ccc(N3CCOCC3)cc2c1=O	-25%	-9	?	-9%
39	CC(C)CCn1c(S(=O)(=O)O)nc2ccccc21	0%	-9	0.0%	-3%
40	CC1(C)CC2CC(C)(CN2/C=C2/CCCCC2=O)C1 (centres undefined)	-21%	8	-4.9%	10%
41	COc1ccc(NC(=S)Nc2ccccc2F)c(OC)c1	-14%	-3	-4.4%	-10%
42	S=c1[nH]nc(NCCc2ccccc2)s1	-6%	4	-2.4%	-16%
43	CC(C)(C)c1cc(CCC(=O)NNC(=O)c2ccco2)cc(C(C)(C)C)c1O	1%	1	-0.9%	-6%
44	CCCCN(C(=O)c1[nH]c(C)c(C(=O)OCC)c1C)c1c(N)n(CCCC)c(=O)[nH]c1=O	-17%	·	-3.1%	·
45	COC(=O)c1ccc2c(=O)[nH]c(CSc3nnc(C(F)(F)F)n3C)nc2c1	1%	-1	0.5%	0%
46	O=C(NCCN1CCOCC1)c1ccc2c(c1)N(Cc1c(F)cccc1Cl)C(=O)c1ccccc1S2	-16%	-11[21.1 µM]	6.8%	7%
47	Cc1cc([N+](=O)[O-])ccc1NCc1ccc2ccccc2c1	-9%	-14	6.5%	2%

3 entries from above, with two lines to a compound:
Second line of a record: Rango dissoc inh | GLA inh pH 4.5 | Rango-impB inh | miR-21 FLuc
(46) O=C(NCCN1CCOCC1)c1ccc2c(c1)N(Cc1c(F)cccc1Cl)C(=O)c1ccccc1S2
 : -16% | -11[21.1 µM] | 6.8% | 7%
(47) Cc1cc([N+](=O)[O-])ccc1NCc1ccc2ccccc2c1
 : -9% | -14 | 6.5% | 2%
(43) CC(C)(C)c1cc(CCC(=O)NNC(=O)c2ccco2)cc(C(C)(C)C)c1O
 : 1% | 1 | -0.9% | -6%

Assay outcomes from PubChem.

This is a subset; count on the stated rates, not on these rows.
